Screens from PubChem BioAssay.
KCNQ2 inh: KCNQ2 channel blockers in CHO-K1 cells – cell-based, FluxOR thallium flux, B-score, primary screen (AID 2156) | O88943 | 20 min; hits give low values; only compounds with negative scores are shown here; some inactives read as strong as hits | B-score at 10 µM | 310,000 tested, 1.1% active;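 active = fluorescence ratio B-score at most minus 3 library SDs, with starting brightness B-score within 2 library SDs, cut at about -5.5 in these data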
Target sequence (O88943 whole entry, looked up): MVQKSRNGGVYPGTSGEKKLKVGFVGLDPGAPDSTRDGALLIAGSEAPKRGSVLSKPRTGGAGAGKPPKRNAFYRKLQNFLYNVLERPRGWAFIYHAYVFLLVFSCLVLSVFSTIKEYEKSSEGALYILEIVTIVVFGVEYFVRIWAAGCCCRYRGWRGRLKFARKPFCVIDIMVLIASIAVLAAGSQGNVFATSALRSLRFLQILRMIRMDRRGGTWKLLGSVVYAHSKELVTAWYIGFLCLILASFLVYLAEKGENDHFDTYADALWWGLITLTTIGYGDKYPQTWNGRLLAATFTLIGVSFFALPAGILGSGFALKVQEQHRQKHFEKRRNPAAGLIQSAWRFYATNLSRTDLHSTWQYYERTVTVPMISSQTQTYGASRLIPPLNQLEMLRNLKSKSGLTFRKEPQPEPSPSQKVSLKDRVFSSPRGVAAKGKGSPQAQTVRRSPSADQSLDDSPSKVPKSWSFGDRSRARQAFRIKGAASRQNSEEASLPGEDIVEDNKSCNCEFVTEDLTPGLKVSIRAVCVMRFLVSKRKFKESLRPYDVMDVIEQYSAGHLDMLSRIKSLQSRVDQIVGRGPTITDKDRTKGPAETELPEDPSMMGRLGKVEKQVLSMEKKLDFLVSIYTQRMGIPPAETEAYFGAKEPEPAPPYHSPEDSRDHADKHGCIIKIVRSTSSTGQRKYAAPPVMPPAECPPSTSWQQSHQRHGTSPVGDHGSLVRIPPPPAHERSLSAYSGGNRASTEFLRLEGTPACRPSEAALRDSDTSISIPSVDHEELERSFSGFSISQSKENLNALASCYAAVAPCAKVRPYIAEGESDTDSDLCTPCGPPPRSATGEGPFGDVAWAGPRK
KCNQ2 inh baseline: also measured in KCNQ2 inh; calls as there; B-score; measured here: initial fluorescence intensity artifact check;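 brightness before thallium and not channel activity; 0 = typical well and far values either way flag optical interference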
The depositor's hits bear a star; i = inactive. An excerpt, so the mix of outcomes need not match the whole.

Below each SMILES: KCNQ2 inh | KCNQ2 inh baseline
CN(C(=O)COC(=O)c1cc(NS(=O)(=O)c2cc([N+](=O)[O-])ccc2Cl)ccc1O)C1CCCCC1
    i | -0.92
COc1ccc(O)c(CNc2ccccc2F)c1
    i | 1.2
O=C(Nc1ccccc1)N1CC=C(c2ccccc2)CC1
    i | -0.44
O=C(Nc1ncccc1O)c1ccc(S(=O)(=O)N2CCCC2)cc1
    i | 1.6
Oc1oc(-c2ccc(Br)cc2)nc1C=Nc1ccc(Br)cn1
    i | -1.8
COc1ccc(-c2cc(C(F)(F)F)nc(S(C)(=O)=O)n2)cc1
    i | 0.37
CCOC(=O)c1c(C)c(C(=O)NCCN2CCOCC2)c(C)n1C
    i | 0.02
Cc1nc2nc[nH]n2c(=O)c1C/C=C/c1ccccc1
    i | -1.6
O=C(NCCc1ccccn1)c1nc(Cn2cc(Br)cn2)no1
    i | -1.1
COC(=O)CC(c1ccc(C(C)C)cc1)n1cccc1 (configuration not stated)
    i | 0.34
COC(=O)c1ccc(COc2ncnc3c(Cl)cc(Cl)cc23)o1
    i | 3.2
O=C(CC1SC(=O)N(c2ccccc2)C1=O)Nc1ccc(Br)cc1 (configuration not stated)
    i | -0.23
COc1ccc(C(=O)NC(=S)Nc2ccc3oc(=O)ccc3c2)cc1OC
    i | 0.02
COc1ccccc1C(=O)N/C(=C\c1cn(C)c2ccccc12)C(=O)NCCCN1CCOCC1
    i | -1.5
COC(=O)C1(C(=O)OC)NOC2C(=O)N(c3ccc(Cl)cc3Cl)C(=O)C21 (configuration not stated)
    i | -0.62

Remaining list, next part.
Below each SMILES: KCNQ2 inh | KCNQ2 inh baseline
CCOC(=O)CN1C(=O)N(CC)C(C)=C(C(=O)OC)[C@@H]1c1ccccc1
    i | 0.8
O=C(Cn1nc([N+](=O)[O-])nc1Br)NC1CCCCC1
    i | -0.26
CCN(CC)CCOC(=O)c1ccc(NC(=O)CCNC(=O)Cn2ccc3ccccc3c2=O)cc1
    i | -1.3
CN(Cc1ccccc1)C(=O)C1CCCN(Cc2ccc(Cl)cc2)C1 (configuration not stated)
    i | 0.06
CN(C)CCN(C(=O)c1ccc(C(=O)c2ccccc2)cc1)c1nc2cc3c(cc2s1)OCCO3
    i | 0.6
CC1Cc2ccccc2N1S(=O)(=O)c1cccc(C(=O)N2CCN(c3ncccn3)CC2)c1 (configuration not stated)
    i | -1.3
COc1ccc(C(=O)C2CC2c2ccc3c(c2)OCO3)cc1 (configuration not stated)
    i | -1.8
Cc1c(C#N)c(O)n(CCO)c(=O)c1N=Nc1ccc(S(N)(=O)=O)cc1
    i | 1.2
CCC(C(=O)OCC(=O)Nc1cc(OC)ccc1OC)c1ccccc1 (configuration not stated)
    i | 0.09
COc1cccc(C(=O)CC(C(=O)O)c2ccc(Cl)cc2)c1 (configuration not stated)
    i | 0.24
CCc1ccc(N/C(SCc2ccccc2C)=C(/C#N)C(=O)NCc2ccco2)cc1
    -6.1* | -2.7*
Cc1[nH]nc2c1C(=O)CC(C)(C)C2
    i | 2.3
CCC1(c2ccccc2)NC(=O)N(CC(=O)N(C)Cc2c(F)cccc2Cl)C1=O (configuration not stated)
    i | -0.39
C[C@H](NC(=O)c1ccccc1Cl)C(=O)OC(C(=O)Nc1cc(C(F)(F)F)ccc1Cl)c1ccccc1 (some centres not stated)
    i | 1.6
O=C(CCl)N(CCc1ccccc1)CCc1ccccc1
    i | -2

Going on with the list.
Below each SMILES: KCNQ2 inh | KCNQ2 inh baseline
O=C1c2ccccc2NC(c2ccccc2)N1CCCN1CCOCC1 (configuration not stated)
    i | 0.95
O=C(N1CCCCCC1)N1CCN(C(=O)N2CCOCC2)CC1
    i | 1.1
O=C(CCNC(=O)C1CCN(S(=O)(=O)c2ccc(F)cc2)CC1)NCCc1cccc(F)c1
    i | 0.34
C=CCn1c(SCc2nc3ccccc3c(=O)[nH]2)nc2sc3c(c2c1=O)CCCC3
    i | 2
CC[C@H](C)[C@H](NC(=O)OCc1ccccc1)C(=O)OCC(=O)N(C)CC(=O)Nc1ccccc1Cl
    i | 0.69
COC(=O)c1ccc(COc2cc(C)ccc2C)o1
    i | 1.5
Cc1ccc(Cl)cc1N1CCN(C(=O)CN(C2CCCCC2)S(C)(=O)=O)CC1
    i | 0.34
COc1ccc(C2C(C(=O)Nc3cccc(C)n3)c3ccccc3C(=O)N2C)cc1 (configuration not stated)
    i | -1.9
CCn1c(-c2cccn(Cc3ccc(Cl)cc3Cl)c2=O)n[nH]c1=S
    i | -2
CCn1cc(CN2CCC(n3nccc3NC(=O)CCOc3ccccc3)CC2)c(C)n1
    i | 1.1
O=C(CCc1ccccc1)Nc1ccc(NC(=O)C2CCCCC2)nc1
    i | 0.24
CCSCc1nnc(SCC(=O)Nc2nccs2)n1CC
    i | -0.97
Cc1cc(C)nc(NC(=O)c2ccc(OC(C)C)cc2)n1
    i | -0.63
Cc1ccc(S(=O)(=O)CCC(=O)NCCC2=CCCCC2)cc1
    i | 1.5
CCn1cc(C(=O)NCC(=O)NCCCN2CCOCC2)c(=O)c2cc3c(cc21)OCO3
    i | -0.88

Additional results follow.
Below each SMILES: KCNQ2 inh | KCNQ2 inh baseline
O=C(CCCNC(=O)c1ccc(Cl)cc1)NCc1ccccc1Cl
    i | -0.37
CCN(CC(=O)Nc1ccc(NC(C)=O)cc1)C(=O)/C=C/c1ccc([N+](=O)[O-])cc1
    i | 0.43
COc1cc(C(=O)Oc2ccccc2/C=N/NC(=O)c2ccc(Cl)cc2)cc(OC)c1OC
    i | 4.1
CC(NC(=O)c1ccco1)c1nc(-c2ccccc2)no1 (configuration not stated)
    i | 1.3
Cc1cc(C)c(C#N)c(SCc2nnc(-c3ccccc3[N+](=O)[O-])o2)n1
    i | -0.05
CCN1CCN(C(=O)c2ccc(OCC(=O)Nc3ccc(F)cc3)c(OC)c2)CC1
    i | -0.05
COCCCNC(=O)c1c(N)n(/N=C/c2cccnc2)c2nc3ccccc3nc12
    i | 0.22
CCOc1cc(/C=C2/C(=N)N3OC(C)=CC3=NC2=O)ccc1OCCOc1ccccc1
    i | 1.3
CCCCNC(=O)CSc1nnc(Cc2ccc(Cl)c(Cl)c2)c(=O)[nH]1
    i | 0.82
CC(Oc1ccc(F)cc1)C(=O)Nc1cc(S(=O)(=O)N2CCCCC2)ccc1N1CCOCC1 (configuration not stated)
    i | 2
CC1CCC/C(=C\Nc2ccc(O)cc2)C1=O (configuration not stated)
    i | -1.9
CCc1ccc2nc(N(CCCN(C)C)C(=O)c3ccc(S(=O)(=O)N4CCCc5ccccc54)cc3)sc2c1
    i | -1.3
CCOC(=O)C1=C(c2ccccc2)N(C)C(=O)NC1c1ccc(OC(F)F)c(OC)c1 (configuration not stated)
    -5.6* | -0.57*
COCCn1c(SCc2ccc(OC)c(F)c2)nc2ccccc2c1=O
    i | -0.2
COc1cc(C)nc(N(C)C(C)=O)n1
    i | 1

The list continues:
Below each SMILES: KCNQ2 inh | KCNQ2 inh baseline
COc1ccc(S(=O)(=O)N2CCc3ccccc32)cc1C(=O)O
    i | -0.86
COc1cccc(-c2nc(CS(=O)(=O)CC(=O)NCCC(C)C)c(C)o2)c1
    i | 1
COc1ccccc1Cn1c(C(C)C)nc2ccccc21
    i | -0.81
CCN(C(=O)CSc1nc2cc(Cl)ccc2c(=O)n1CC(C)C)C1CCS(=O)(=O)C1 (configuration not stated)
    i | -0.75
CCCCC1=CC2=CC(=O)C(C)(OC(=O)C3CCCC3)C(=O)C2=CO1 (configuration not stated)
    i | 2.4
CCOc1ccc(NC(=O)CN(c2ccc(OCC)cc2)S(=O)(=O)c2c(C)[nH]c(=O)[nH]c2=O)cc1
    i | -1.5
C/C=C/C(=O)N1CC2(CC(c3cccc(NC(=O)CC)c3)=NO2)C[C@H]1C(N)=O (some centres not stated)
    i | 0.11
NC(=O)c1cc(C(N)=O)nc(Cl)n1
    i | -0.25
Cc1ccc(-c2csc(/C=C3\SC(C)C(=O)N3CC(=O)Nc3ccccc3F)n2)cc1 (configuration not stated)
    i | 0.51
CCOCCCNS(=O)(=O)c1ccc2c(c1)oc(=O)n2CC(=O)OCC
    i | 2.5
C=CCn1cnc2scc(-c3ccccc3)c2c1=O
    i | 0.06
COc1ccccc1C1SCCN1S(C)(=O)=O (configuration not stated)
    i | -0.15
CCOc1ccc(N2C(=O)CC(Sc3nc4ccc(OCC)cc4s3)C2=O)cc1 (configuration not stated)
    i | 1.3
COCCC(=O)Nc1ccc2c(c1)CN(C(=O)CCOC)CC2
    i | 2.5
CC(=O)Oc1ccc2nc(-c3ccc(Br)o3)oc(=O)c2c1
    i | -1.4

(continued)
SMILES	KCNQ2 inh	KCNQ2 inh baseline
C#CCOCCOCCOCCNc1nc(N2CCN(C(=O)C([C@@H](C)CC)n3cc(C(N)COC(=O)C(F)(F)F)nn3)CC2)nc(N2CCN(C(=O)[C@H](Cc3cc4ccccc4[nH]3)n3cc(C(N)CO)nn3)CC2)n1 (some centres not stated)	i	4
COc1ccc(CC2(C)OC(c3ccc([N+](=O)[O-])cc3)=NN2C(C)=O)cc1 (configuration not stated)	-6.2*	0.59*
CC1OC2(C)OC(=N)C1(C#N)C(C#N)(C#N)C2c1ccccc1 (configuration not stated)	i	0.93
COc1cc(C)nc(NC(=O)COc2ccc(Cl)cc2C)n1	i	0.7
CCOC(=O)c1nc(Nc2ccc(C)cc2)c2ccccc2n1	i	-1.1
CSc1ccccc1C(=O)OCC(=O)NC1CCS(=O)(=O)C1 (configuration not stated)	i	0.98
COc1ccc2c3c([nH]c2c1)C1CC2C(CC(O)C(OC)C2CO)CN1CC3 (configuration not stated)	i	1.4
CCN(C(=O)CSc1nnc(-c2ccc(F)cc2)c2ccccc12)C1CCS(=O)(=O)C1 (configuration not stated)	i	0.35

(next part)
SMILES	KCNQ2 inh	KCNQ2 inh baseline
CC(CN1CCCC1)OC(=O)C(c1ccccc1)c1ccccc1 (configuration not stated)	i	-0.24
CCOC(=O)C1CCN(C(=O)c2cc(C)n(C(C)(C)C)n2)CC1	i	1.2
COCCN(C(=O)COC(=O)CCS(=O)(=O)c1ccccc1)c1c(N)n(Cc2ccccc2)c(=O)[nH]c1=O	i	-0.06
O=C(COc1coc(CN2CCc3ccccc3C2)cc1=O)Nc1cccc(F)c1	i	-2.4
COC(=O)C1=C(O)/C(=C/c2ccc(OCC(=O)Nc3ccccc3)cc2)N=C1C	i	0.67
COc1ccc(CC(NC(C)=O)C(=O)NC2CCN(c3nc(C)cc(C)c3C#N)CC2)cc1 (configuration not stated)	i	-0.64
CCOC(=O)Cc1nn(Cc2ccc(Cl)cc2)c(=O)c2ccccc12	i	0.79
CC(C)c1ccc(/C=C/C(=O)n2nnc3ccccc32)cc1	-6.2*	-0.09*

Given field by field: entries from further up
O=C(COc1coc(CN2CCc3ccccc3C2)cc1=O)Nc1cccc(F)c1
  KCNQ2 inh: i
  KCNQ2 inh baseline: -2.4
CC(CN1CCCC1)OC(=O)C(c1ccccc1)c1ccccc1 (configuration not stated)
  KCNQ2 inh: i
  KCNQ2 inh baseline: -0.24
COCCN(C(=O)COC(=O)CCS(=O)(=O)c1ccccc1)c1c(N)n(Cc2ccccc2)c(=O)[nH]c1=O
  KCNQ2 inh: i
  KCNQ2 inh baseline: -0.06
CC(C)c1ccc(/C=C/C(=O)n2nnc3ccccc32)cc1
  KCNQ2 inh: -6.2*
  KCNQ2 inh baseline: -0.09*

Carrying on.
SMILES	KCNQ2 inh	KCNQ2 inh baseline
Cc1cc(C)c2cc(C)c3nnc(SCC(=O)NCc4ccc5c(c4)OCO5)n3c2c1	i	-0.47
Cc1cc(C(=O)NNC(=S)NCc2ccco2)n(C)n1	i	1.5
C=CCc1ccccc1OCC(O)CN1CCN(c2ccc(OC)cc2)CC1 (configuration not stated)	i	-2.6
CN(C)CCCN(C(=O)c1ccc2c(c1)CCCC2)c1nc2ccc(Cl)cc2s1	i	0.08
CCOC(=O)c1ccc(NC(=O)c2nc[nH]c2C(=O)N[C@@H](CCCCNC(=O)OC(C)(C)C)C(=O)OC(C)(C)C)cc1	i	0.4
COc1ccc(NC(=O)c2cc3n(n2)C(C(F)(F)F)CC(c2ccco2)N3)cc1 (configuration not stated)	i	0.49
CCOC(=O)C1=C(C)N(C)C(=S)NC1c1c(OCC)ccc2ccccc12 (configuration not stated)	i	-0.51
Cc1ccccc1N1CC(C(=O)Nc2nnc(SCc3ccccn3)s2)CC1=O (configuration not stated)	i	-1.3

Other results follow.
SMILES	KCNQ2 inh	KCNQ2 inh baseline
CCOc1ccccc1N(CC(=O)Nc1ccc(S(=O)(=O)N2CCCC2)cc1)S(C)(=O)=O	i	-0.56
CCCCN=C1SC(C(=O)Nc2sc3c(c2C(=O)OC)CCC3)C(N)=C1C(=O)N1CCOCC1 (configuration not stated)	i	1.6
O=C(CCc1nnc(CCCCc2ccccc2)o1)NCCN1CCCCC1=O	i	1
CC1=Nn2c(nnc2-c2n[nH]c3c2CCC3)SC1	i	0.03
O=C1COc2ccc(C(=O)COC(=O)CCSc3ccc(Cl)cc3)cc2N1	i	1.7
Cc1cccc(C)c1NC(=S)NC(C)CCc1ccccc1 (configuration not stated)	i	-0.07
CC(C)N(C(C)C)S(=O)(=O)c1ccc(NN)nc1	i	0.37
CCOC(=O)C1CCN(c2c(NCCCN3CCN(Cc4ccccc4)CC3)c(=O)c2=O)CC1	i	-0.58
COc1cc(CC(NC(C)=O)C(=O)NC2CCN(c3nc(OC)nc(OC)n3)CC2)cc(OC)c1 (configuration not stated)	i	-1.8

A different layout for some results above.
CCOc1ccccc1N(CC(=O)Nc1ccc(S(=O)(=O)N2CCCC2)cc1)S(C)(=O)=O
  KCNQ2 inh: i
  KCNQ2 inh baseline: -0.56
CC(C)N(C(C)C)S(=O)(=O)c1ccc(NN)nc1
  KCNQ2 inh: i
  KCNQ2 inh baseline: 0.37
CCOC(=O)C1CCN(c2c(NCCCN3CCN(Cc4ccccc4)CC3)c(=O)c2=O)CC1
  KCNQ2 inh: i
  KCNQ2 inh baseline: -0.58
CC1=Nn2c(nnc2-c2n[nH]c3c2CCC3)SC1
  KCNQ2 inh: i
  KCNQ2 inh baseline: 0.03
